# Screening data as filed in PubChem.
# MgrA-DNA mod = modulators of Staphylococcus aureus MgrA DNA binding; hit rate 0.13% among 84,000; AID 602314; inhibition, %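 (about 10 µg/mL by stock and volumes)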; fluorescence polarization;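 active means above 50% in either of two replicates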;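 further: 0% = protein plus DNA without compound and 100% = DNA alone without protein; higher means less MgrA bound to DNA so lower polarization; one replicate is shown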
# Sa helicase inh = S. aureus DNA helicase inhibition | hit rate 0.05% among 120,000 | inhibition, %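 (tested at about 80 µM)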 | purified S. aureus helicase, fluorescence unwinding assay; about half of the hits fall short of the stated cut | AID 485395;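 active means both duplicates at 50% or more, or one of them with a favoured structure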;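 further: 0% = mean of negative control wells and 100% = mean of positive control wells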
# The depositor's hits bear a star; x = not tested or not shown; & = joins results of further samples. Only part of the results is shown; rates above refer to the full screens.
# Preview, 4 compounds:
no.	Structure	MgrA-DNA mod	Sa helicase inh
1	N#C/C(=N\Nc1ccc(F)cc1)S(=O)(=O)c1ccc(Cl)cc1	4.1	x
2	CCN(CC)C(=O)c1cc(-c2ccc(OC)c(OC)c2)on1	0.0	6
3	CCCc1n(CC(O)COCC2CC=CCC2)c2ccccc2[n+]1C (stereo not drawn)	1.5	8
4	O=C(N/N=C/c1ccccc1)c1n[nH]c(=O)c2ccccc12	x	9

# All compounds of this part, from the start:
no.	Structure	MgrA-DNA mod	Sa helicase inh
1	N#C/C(=N\Nc1ccc(F)cc1)S(=O)(=O)c1ccc(Cl)cc1	4.1	x
2	CCN(CC)C(=O)c1cc(-c2ccc(OC)c(OC)c2)on1	0.0	6
3	CCCc1n(CC(O)COCC2CC=CCC2)c2ccccc2[n+]1C (stereo not drawn)	1.5	8
4	O=C(N/N=C/c1ccccc1)c1n[nH]c(=O)c2ccccc12	x	9
5	O=[N+]([O-])c1cc(C(F)(F)F)ccc1Oc1ccc(SC(F)(F)F)cc1	5.2	x
6	O=c1ccnc(SCc2ccc(CSc3nccc(=O)[nH]3)cc2)[nH]1	7.8	17&4
7	CCc1ccccc1OCCSc1ncccn1	-4.0	10
8	CC(N)C(=O)Nc1ccc2c(c1)Cc1ccccc1-2 (stereo not drawn)	-0.4	18
9	O=S(=O)(c1ccc(Cl)cc1)N1CN(Cc2cccs2)c2nc3ccccc3nc21	x	10
10	CCOC(=O)c1c(CN(CC)CC)n(C)c2cc(Br)c(OC)cc12	x	13
11	Cc1ccc(CNc2ncnc3c2oc2ccccc23)cc1	x	2
12	CC1(C)Cc2c(sc3nc(-c4ccccc4)oc(=O)c23)CO1	12	x
13	Cc1ccc(S(=O)(=O)N(C)S(=O)(=O)c2ccc(C#N)cc2)cc1	x	-1
14	NNC(=O)Cn1nnc(-c2ccc(C(F)(F)F)cc2)n1	-0.2	x
15	CN1CCN(CCC(=O)N/N=C/c2ccccc2)CC1	2.4	2
16	O=C(NCN1CCCCC1)Nc1cccc(Cl)c1	1.4	0
17	CC1CCCCC1NC(=O)Cn1nnc(-c2ccc(N(C)C)cc2)n1 (stereo not drawn)	5.7	7
18	COc1nc(OC)nc(N2CCC(C(=O)NC3CCCCCC3)CC2)n1	2.0	-1
19	O=C(Nc1ccc(Cl)c(-c2nc3ccccc3o2)c1)c1cc([N+](=O)[O-])ccc1Br	-0.3	x
20	CNC(=O)c1c(O)c2cccc3c2n(c1=O)CCC3	-2.7	6
21	CCOc1ccc2nc(N3CCC(C(=O)NC)CC3)sc2c1	x	12
22	CCOC(=O)c1c(N)sc2c1CCN(C(=O)OCC)C2	x	3
23	O=c1c2ccccc2[nH]c(=S)n1CC1CCCO1 (stereo not drawn)	1.1	2
24	C/[N+]([O-])=C\c1coc2ccccc2c1=O	-0.3	x
25	CCOC(=O)c1ccc(-c2ccc(/C=c3/sc4nc5c(C)c(C)ccc5n4c3=O)o2)cc1	3.3	1
26	O=C1CSC(c2ccccc2)N1Cc1ccccn1 (stereo not drawn)	x	-7
27	Cc1cc(C)n(-c2ccc(C(=O)NC3CCCCC3)cc2)n1	0.8	3
28	Cc1c(C)c(C)c2[nH]c(-c3ccc4c(c3)OCO4)nc2c1C	-2.3	x
29	S=C(NC1CCCCC1)N1CCCCCC1	1.8	-14
30	COC(=O)c1ccc(C(c2c(N)n(C)c(=O)n(C)c2=O)N2CCN(c3ccccc3)CC2)cc1 (stereo not drawn)	x	-20
31	N#Cc1nc(-c2cccc(Cl)c2)oc1NCCc1ccccc1	-1.6	7
32	O=C(O)CC12CC3CC(C1)CC(C(=O)O)(C3)C2	-2.3	0
33	CC(C)(C)c1nc(CN2CCOCC2)cc(CN2CCOCC2)c1O	-4.1	8
34	N#CC(C(=O)c1ccc(F)cc1)c1nc2ccccc2c(=O)[nH]1 (stereo not drawn)	0.0	6
35	COc1ccc(C2=NN(C(=O)c3ccccc3)C(c3cccc([N+](=O)[O-])c3)C2)cc1 (stereo not drawn)	2.7	x
36	CC(C(=O)O)c1ccc(N)cc1 (stereo not drawn)	-0.7	x
37	COc1cc(C=C2C(=O)NC(=S)NC2=O)cc(Cl)c1OCCOc1ccccc1	22	x
38	COC(=O)c1ccc(N2C(=O)Cc3c2nc(N)c2c(N)nc(N(C)C(C)C)c(C#N)c32)cc1	x	-17
39	Cc1ccc(S(=O)(=O)NC(C)C(=O)O)cc1 (stereo not drawn)	-0.4	3
40	N#C/C(=C1/CCCCCN1)c1nc2ccccc2[nH]1	-1.2	-10
41	CC(C)(C)n1cnnc1SCc1c(Cl)cccc1Cl	1.8	x
42	N#Cc1ccc(NC(=O)CNCC2CCCCC2)cc1	-1.3	3
43	Cc1c(NC(=O)Cc2ccc(S(=O)(=O)N3CCCCC3)cc2)c(=O)n(-c2ccccc2)n1C	x	-4
44	CC(O)CNc1nc2ccccc2n1CC(O)COCc1ccco1 (stereo not drawn)	x	32
45	COc1ccc(C(=O)O)cc1	x	8
46	CN(C)C(=S)Nc1ccccc1OC(F)F	16	5
47	CC(C)(C)c1cc2nc(C(F)(F)F)cc(N3CCN(c4cc(C(F)(F)F)nc5cc(C(C)(C)C)nn45)CC3)n2n1	3.2	x
48	CCOc1ccc(OCC)c(NC(=O)C(Cc2ccccc2)n2cccc2)c1 (stereo not drawn)	x	13
49	Nc1ccccc1SCc1ccc2nonc2c1	-0.2	x
50	O=C1c2ccccc2S(=O)(=O)NN1CCN1C(=O)c2ccccc2S1(=O)=O	x	-11
51	O=C(c1ccccc1)N1CCC(O)(c2ccccc2)[C@H]2CCCC[C@H]21 (stereo partly drawn)	-0.2	-2
52	CC1=C(C#N)c2nc(N)c(C#N)c(C)c2/C1=C\c1ccccc1	1.4	2
53	c1cc2c(nn1)CCc1nonc1-2	x	-1
54	Cc1cc(C)c(/C=C(\C#N)C(N)=O)c(C)c1	2.0	2
55	CCOC(=O)c1cnc(SCC)[nH]c1=O	-2.6	-8
56	CSc1ccc(CN(C)CC(=O)NC(=O)Nc2ccc3c(c2)OCCO3)cc1	x	4
57	COc1ccc(-c2[nH]c3ccccc3c2SCCNC(=O)c2ccc(OC)c(OC)c2)cc1	0.0	16
58	O=C(CSCc1ccco1)NCc1ccccc1Cl	0.7	0
59	CCc1ccc(NC(=O)CCCN2C(=O)COc3ccc(C)cc32)cc1	x	-25
60	COc1ccc(/C=C(\C#N)C(=O)Nn2c(-c3cc(OC)c(OC)c(OC)c3)nc3ccccc3c2=O)cc1	2.6	x

# Profiles from above. Values in the order: MgrA-DNA mod, Sa helicase inh
# `O=C1c2ccccc2S(=O)(=O)NN1CCN1C(=O)c2ccccc2S1(=O)=O` across the screens: x, -11
# `CC(C)(C)c1cc2nc(C(F)(F)F)cc(N3CCN(c4cc(C(F)(F)F)nc5cc(C(C)(C)C)nn45)CC3)n2n1` across the screens: 3.2, x

# (continued)
no.	Structure	MgrA-DNA mod	Sa helicase inh
61	NC(=O)c1ccccc1NC(=O)CS(=O)(=O)Cc1ccccc1	1.8	12
62	O=C(COc1ccccc1)NCc1nc(-c2ccccc2)no1	x	26
63	O=C(OCc1cccc(Cl)c1)c1ccc2c(c1)OCO2	-4.8	7
64	CCC1N(c2ccccc2)CCN1c1ccccc1	x	21
65	CN1CCN(CCCNC(=O)Cc2ccc(NC(=O)N3CCSc4ncccc43)cc2)CC1	x	-19
66	COCCN(Cc1c(-c2cccs2)n(C)c2ccccc12)C(=O)Nc1ccccc1	x	14
67	O=C(COc1ccc2oc(-c3ccccc3)cc(=O)c2c1)N1CCCCC1	0.0	0
68	COc1ccc(-n2cc(-c3ccccc3)c3c(SC)ncnc32)cc1	x	4
69	CCC(C)NC(=O)CSc1ncccc1C(=O)OC(C)C (stereo not drawn)	x	4
70	COc1c(/C(N)=N/O)cc(C)c2c1CCC2	-1.2	x
71	O=C(CSC1=NCCS1)NC1CCCc2ccccc21 (stereo not drawn)	x	7
72	CCc1ccc(NC(=O)NC2CCN(Cc3ccccc3)CC2)cc1	3.9	3
73	Cc1noc(C)c1COC(=O)C1CSC2(C)CCC(=O)N12 (stereo not drawn)	x	-8
74	O=C(Nc1nc(-c2ccc3c(c2)CCCC3)cs1)c1cccnc1	0.2	-9
75	CC(=O)Nc1cccc(C(=O)NCCc2nc3ccccc3[nH]2)c1	x	-15
76	NNC(=O)OC12CC3CC(CC(C3)C1)C2	5.1	x
77	CCc1ccc(NC(=O)N(C2CCCCC2)C(C)c2cccnc2)cc1 (stereo not drawn)	x	23
78	Nc1cc(-c2ccc(Cl)cc2)nn1S(=O)(=O)c1ccc(Cl)cc1	x	12
79	CCOC(=O)C1CCCN(Cc2ccccc2)C1 (stereo not drawn)	0.3	11
80	CNC(=O)CSc1nnc(-c2ccco2)n1CC1CCCO1 (stereo not drawn)	1.4	-8
81	Cn1ncc(NC(=O)Nc2ccc(F)cc2F)c1C(N)=O	-0.2	8
82	CN(C)S(=O)(=O)c1ccc(C(=O)C2=C3SC=C(c4ccc(F)cc4)N3CC2)cc1	x	-195
83	Cc1nc(-c2ccccc2)sc1C(=O)NC(=O)c1ccccc1O	1.4	x
84	Cc1nn(-c2ccc(Cl)cc2)c2sc(C(=O)OCCC3CCCCN3C)cc12 (stereo not drawn)	x	9
85	COc1ccc(S(=O)(=O)CC(SC#N)c2ccccc2)cc1 (stereo not drawn)	x	18
86	COC(=O)Cn1c(=N)n(Cc2ccc(C(C)(C)C)cc2)c2ccccc21	x	22
87	COCCN1CCn2c(nc3cc(NC(C)=O)ccc32)C1	0.1	5
88	CC1CC(C)CN(C(=O)Nc2cccc(Cl)c2)C1 (stereo not drawn)	2.2	17
89	C/C(=C\C(=O)c1ccccc1)Nc1cccc(O)c1	2.2	13
90	CN(CC(F)(F)C(F)F)S(=O)c1ccc2ccccc2c1 (stereo not drawn)	x	12
91	N#Cc1ccccc1N=Cc1cccc(O)c1O	0.5	4
92	CC1CCCC(C)N1NC(=O)c1cccc(N(C)C)c1 (stereo not drawn)	x	6
93	Cc1ccccc1CC1SC(=Nc2ccc(Br)cc2)NC1=O (stereo not drawn)	-1.2	x
94	CCc1ccc(C2C3=C(CCCC3=O)Nc3[nH]n(-c4ccccc4)c(=O)c32)cc1 (stereo not drawn)	-0.6	8
95	CCCOC(=O)c1ccc(N2COc3ccc4c(C)cc(=O)oc4c3C2)cc1	x	0
96	CCOC(=O)C1CCN(Cc2nc(-c3ccc(Cl)cc3)no2)CC1	-0.8	x
97	O=C(NCCCN1CCCCCC1)c1cc2c(=O)oc3ccccc3c2s1	x	1
98	CCCCN(CC)C(=O)c1ccccc1SCC	3.2	11
99	Nc1cc(N)nc(SCC(=O)N2CCCCC2)n1	3.8	4
100	O=C(c1ccco1)N1N=C(c2ccccc2)CC1c1ccccc1 (stereo not drawn)	-0.1	14
101	CCn1c(-c2csc3ccccc23)n[nH]c1=S	2.1	5
102	CCOC(=O)CC(=O)CSc1nnc(N)s1	2.2	x
103	O=c1[nH]c2ccccc2c(=O)n1CCN1CCSCC1	-1.0	x
104	Cn1c(SCc2cccc(C#N)c2)nc2ccccc2c1=O	0.8	-9
105	Clc1nc(NCCN2CCOCC2)nc(NC2CCCCC2)n1	-0.5	6
106	CCOC(=O)C1SCCN1c1ccc(C)cc1 (stereo not drawn)	x	5
107	O=C(c1ccccn1)N1CCC(C(O)(c2ccccc2)c2ccccc2)CC1	x	-6
108	COc1cc2c(cc1OC)C(c1ccc(N)cc1)NCC2 (stereo not drawn)	-0.2	x
109	COc1ccc(C2CCCCCN2C(=O)c2nn(C)c(=O)c3ccccc23)cc1 (stereo not drawn)	x	-4
110	Cc1nc2ccccc2c2oc(C(=O)NCCN(C)C3CCCCC3)cc12	0.6	11
111	Cc1ccc2cc3cc(C(=O)NCCCN4CCCCCC4)sc3nc2c1	-3.1	23
112	CCC(=O)N1c2ccc(S(=O)(=O)NC3CCCCC3C)cc2CC1C (stereo not drawn)	4.2	12
113	CCn1c2ccccc2c2cc(CN3CCN(Cc4cccc(C)c4)CC3)ccc21	0.5	5
114	CN(C)CCn1c(C(=O)O)cc2ccccc21	x	2
115	O=C(Nc1ccc2ccccc2c1)c1ccco1	1.1	x
116	N/N=c1/nc2sccn2c2ncccc12	x	2
117	O=S(=O)(NCC(O)CN1CCOCC1)c1ccc2ccccc2c1 (stereo not drawn)	x	35
118	CN(C)/C=C/C(=O)c1cc(F)ccc1O	0.4	x
119	COc1cccc2c1OCC(C#N)=C2	-1.1	x
120	Cc1ccc(CN2CCC(CNc3ncnc4onc(C)c34)CC2)cc1	x	-17

# An excerpt from above in order of the Sa helicase inh value, ascending:
no.	compound	MgrA-DNA mod	Sa helicase inh
3	CCCc1n(CC(O)COCC2CC=CCC2)c2ccccc2[n+]1C (stereo not drawn)	1.5	8
61	NC(=O)c1ccccc1NC(=O)CS(=O)(=O)Cc1ccccc1	1.8	12
88	CC1CC(C)CN(C(=O)Nc2cccc(Cl)c2)C1 (stereo not drawn)	2.2	17

# (list continues)
no.	Structure	MgrA-DNA mod	Sa helicase inh
121	Fc1ccc(-n2nnnc2-c2cccc(C(F)(F)F)c2)cc1F	2.5	x
122	Cc1noc(C)c1COC(=O)c1cccnc1SCC(=O)Nc1ccccc1OC(F)F	x	30
123	CC(=O)NC(Cc1ccccc1)C(=O)NC1CCN(C(=O)c2ccccc2)CC1 (stereo not drawn)	-2.3	1
124	CNc1nc2c(Cl)cc(Cl)cc2s1	-0.1	x
125	CC1CCN(CC(=O)Nc2cccc(C(F)(F)F)c2)CC1	-3.3	7
126	COc1nc2ccccc2nc1CCC(=O)NC1CCCCCC1	-1.2	8
127	CC(C)N(C(=O)CSc1nnc2sc3ccccc3n12)c1ccccc1	x	-3
128	O=C(NC(=S)NCCC1=CCCCC1)c1ccco1	x	-1
129	COc1ccc(OC)c2c(C)cc(N3CCN(C(=O)c4ccc(Cl)cc4)CC3)nc12	x	18
130	O=C(CN1CCN(Cc2ccccc2)C1=O)NC1CCCCCCC1	-1.4	2
131	CCOC(=O)Nc1cncc(Br)c1	0.7	x
132	Cc1c(Cl)cccc1NC(=S)N(CCN(C)C)C1CCN(C(C)C)CC1	x	8
133	[N-]=[N+]=c1c(=O)ccc2c(=O)c3ccccc3c(=O)c1=2	30	13
